UCH37 inh = human UCH37 deubiquitinating enzyme inhibition | inhibition, % (concentration not given with the values) | purified proteasome/UCH37, Ub-AMC cleavage fluorescence | Q9Y5K5 | 0.33% of 330,000 active;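 active = mean of two replicates above 20%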;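 also: 0% = compound-free wells with enzyme and 100% = wells lacking proteasome; stock transfer was 100 nL into about 20 µL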
Target sequence (Q9Y5K5 whole entry, looked up): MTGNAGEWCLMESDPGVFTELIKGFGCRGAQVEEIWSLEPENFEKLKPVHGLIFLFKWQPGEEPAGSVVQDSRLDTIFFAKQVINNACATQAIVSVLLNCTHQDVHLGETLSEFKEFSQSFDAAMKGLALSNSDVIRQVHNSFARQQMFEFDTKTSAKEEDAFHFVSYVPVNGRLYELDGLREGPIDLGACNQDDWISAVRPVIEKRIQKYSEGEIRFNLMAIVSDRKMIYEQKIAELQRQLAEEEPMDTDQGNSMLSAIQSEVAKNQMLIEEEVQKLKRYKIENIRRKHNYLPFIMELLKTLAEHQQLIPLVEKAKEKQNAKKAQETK
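Test system – human UCH37 enzyme supplied as purified proteasome complex · Incubation – 30 min preincubation with enzyme, 25 min cleavage at room temperature · Detection – AMC fluorescence from Ub-AMC cleavage, excitation 355 nm, emission 460 nm · Benchmarks – no-proteasome wells (full inhibition) and compound-free wells (no inhibition)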
LANA-H2A inh = blocks KSHV LANA binding to histone H2A/H2B; cell-free LANA-H2A/H2B peptide, fluorescence polarization; inhibition, % (test concentration not listed); 0.6% of 320,000 active; AID 2629; in the data active = inhibition mostly above about 10%, no sharp cut-off; inactive = mostly below about 6.7%;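 also: stock transfer was 7.5 nL into about 10 µL; 0% = median of vehicle wells and 100% = median of positive control wells; one replicate is shown; the record names a cut of 25% in any replicate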
Vif A3G = inhibitors of Vif binding to APOBEC3G peptide, primary screen, biochemical, TR-FRET, GST-Vif 1-94, biotin-A3G peptide, dose response retest (AID 1117319); TR-FRET GST-Vif / biotin-A3G peptide binding; higher % means a stronger effect; test concentration not given here; strong numbers were not always called active; inhibition, %; hits with a dose series show IC50 in µM; 0.57% of 260,000 active;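 active = above the screen mean plus three standard deviations and confirmed in dose response; inconclusive = results disagree or hit not tested in dose response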;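 also: Vif residues 1-94 fused to GST binding biotinylated APOBEC3G peptide 110-148; 0% = full assay without inhibitor and 100% = GST in place of GST-Vif; retest series ran down from 100 µM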
A1 inh = inhibitors of the anti-apoptotic protein A1, read as caspase activation; MEF A1-2A-BIM cells, Caspase-Glo 3/7 luminescence, 3 h; percent of clofoctol response, vehicle zero; caspase activation, % (test concentration not listed); 0.066% of 330,000 active;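 active = over half of replicate activation scores above 10%, or exactly half above 10 with the replicate mean above 10; inconclusive = replicate mean below 10 yet half the replicates above 10; inactive = over half of replicates below 10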;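 also: wells of about 30 µL received 50 nL stock; many hits fall short of the cut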
Ecoli growth = inhibitors of Escherichia coli growth; OD600, 23 h; active compounds read low; OD600 absorbance (test concentration not listed); 0.21% of 330,000 active; AID 1053175;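 active = OD600 absorbance below the run mean of sample wells minus 3.6 SD, in any replicate, cut at about 0.56 in these data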;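 also: stock transfer was 300 nL into about 60 µL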
Beta2AR agonist = activates human beta-2 adrenergic receptor causing internalization | Am2.2-beta2AR cells, FAP receptor internalization, flow cytometry; reference of the scale not given here | response, % (no concentration beside the values) | 0.43% of 340,000 active;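 active = response above a set limit, near 3 SD of response in nonfluorescent compounds, cut at about 42% in these data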;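 also: stock transfer was 100 nL into about 11 µL; a reference agonist was the positive control; negative values mostly stem from fluorescent compounds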
HNF4A DNA FP = change in binding of human HNF4 alpha to DNA; HNF4a-FITC DNA binding, fluorescence polarization, 1 h; activity change, % at 10 µM; 0.3% of 360,000 active; in the data active = activity change above about 30%, passing the limit was not always enough;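 also: controls were the assay level and a saturating level of protein; the project sought stronger binding though the title names inhibitors; some compounds called inactive have numbers as strong as hits; positive values seem to mean higher polarization but the record does not say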
Target sequence (P41235 whole entry, looked up): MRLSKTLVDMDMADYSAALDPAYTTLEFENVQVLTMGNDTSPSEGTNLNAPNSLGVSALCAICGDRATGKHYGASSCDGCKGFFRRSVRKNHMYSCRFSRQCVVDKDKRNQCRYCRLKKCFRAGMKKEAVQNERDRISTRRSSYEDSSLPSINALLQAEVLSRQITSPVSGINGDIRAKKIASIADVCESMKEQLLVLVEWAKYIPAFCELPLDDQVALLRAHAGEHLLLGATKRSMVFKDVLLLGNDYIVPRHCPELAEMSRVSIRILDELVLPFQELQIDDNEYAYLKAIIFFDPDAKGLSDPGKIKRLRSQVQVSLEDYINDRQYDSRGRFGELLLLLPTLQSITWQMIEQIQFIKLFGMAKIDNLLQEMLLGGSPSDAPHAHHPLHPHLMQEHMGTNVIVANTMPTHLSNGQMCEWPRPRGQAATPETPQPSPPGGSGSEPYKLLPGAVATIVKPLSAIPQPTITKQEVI
* marks the source's active call; other numbers are inactive results; ? = inconclusive; nt = no result given; & = joins results of further samples. Rows were taken by chance; overall some 2.1% were active at least once.

Second line of a record – UCH37 inh	LANA-H2A inh	Vif A3G	A1 inh	Ecoli growth	Beta2AR agonist	HNF4A DNA FP
CC1N(C)c2cc(NC(=O)c3ccco3)ccc2C1(C)C (stereo unspecified)
 : 0.4	-8.8	?	-0.7	0.672	2.0	52.5*
Nc1c(C(=O)Nc2cccc(F)c2)nnn1-c1cccc(C(F)(F)F)c1
 : 0.4	-4.5	0.4%	-0.5	0.699	3.5	0.0
CSc1nc2sc3c(c2c(=O)n1C)CCCC3
 : 0.5	5.5	-7.1%	-1.7	0.712	-3.6	2.5
CCN(CC)S(=O)(=O)c1ccc(C(=O)/C=C/c2ccc(-c3ccc([N+](=O)[O-])cc3)o2)cc1
 : 8.3	1.4	25.1%	-0.2	0.68	0.3	0.4
Cc1cccc(C(=O)c2cnc3ccccc3c2-c2ccccc2)c1
 : 2.4	1.3	1.0%	-0.3	0.72	7.9	-1.5
O=C(Nc1ccc(C(=O)N2CCOCC2)cc1)c1cccc([N+](=O)[O-])c1
 : 2.6	-1.1	18.9%	0.0	0.73	-2.0	0.6
CC1CCC2(CC1)Nc1ccccc1C(=O)N2c1ccccc1 (stereo unspecified)
 : -194.7	5.9	-3.2%	-0.1	0.662	-2.3	1.2
COc1ccc(NC(=O)CCNS(=O)(=O)c2cc(Br)cnc2N)cc1OC
 : 2.0	2.4	-0.6%	-0.6	0.667	6.2	6.1
CC(Sc1nnc(CNC(=O)c2ccco2)n1C)C(=O)Nc1nccs1 (stereo unspecified)
 : 0.1	8.1	nt	-0.2	0.655	-0.9	1.7
CCOc1cc(/C=C/c2ccc3cccc([N+](=O)[O-])c3n2)ccc1O
 : 2.2	0.0	nt	0.4	0.715	-2.9	-0.8
CC(Sc1cnccn1)C(=O)O (stereo unspecified)
 : 0.4	3.5	5.5%	0.4	0.672	-5.0	-0.5
CCC(=O)Nc1c(-c2ccccc2Cl)c(=O)c2ccccc2n1C
 : 4.8	-2.6	1.9%	0.6	0.635	-6.8	-4.7
COc1ccc(Br)cc1C(=O)O
 : 0.4	0.1	5.9%	0.7	0.703	-10.4	0.7
O=C(NCc1ccccn1)c1cccc(S(=O)(=O)NCc2ccccc2)c1
 : 3.2	2.7	3.7%	0.2	0.685	-1.6	4.7
Cc1ccc(N(CC(=O)NC(C)C)C(=O)CCC(=O)Nc2nccs2)cc1C
 : 2.9	-5.2	8.2%	1.1	0.704	-1.7	0.6
O=[N+]([O-])c1cc(Cl)ccc1N1CCCCC1
 : 2.9	-3.6	7.6%	0.5	0.714	12.7	-1.9
Cc1cc(Cl)c(OCCOCCN2CCNCC2)c(Cl)c1
 : 7.1	-3.5	nt	0.8	0.634	-3.5	0.8
N#CCSc1nc(Nc2ccc3c(c2)OCO3)c2ccccc2n1
 : -5.0	-1.7	7.0%	-0.6	0.649	7.9	-1.8
N#Cc1cn(-c2ccccc2)nc1C(=O)c1ccccc1
 : 36.5*	-6.6	-5.0%	0.0	0.649	-18.4	1.1
COc1cc(NC(=O)c2ccc3nsnc3c2)cc(OC)c1OC
 : 3.7	-2.4	1.4%	0.4	0.677	5.7	-1.8
CCOC(=O)c1ccc2[nH]c3ccccc3c2c1
 : -0.6	-1.6	-1.9%	1.0	0.771	-8.4	2.9
O=C1c2ccccc2C(=O)N1OS(=O)(=O)c1ccccc1
 : -8.1	nt	nt	0.6	0.686	nt	nt
O=C(CCCSc1nc2ccccc2s1)NCc1ccc2c(c1)OCO2
 : 2.2	-3.1	7.2%	0.1	0.658	-4.5	0.7
Cc1c(C(=O)N2CCOCC2)oc2ccc(S(=O)(=O)N3CCCCCC3)cc12
 : 2.2	-2.4	-9.2%	-1.8	0.709	2.4	-0.7
COc1cc(/C=C2\SC(=O)N(CC(=O)Nc3ccccc3F)C2=O)cc(Cl)c1O
 : nt	-2.1	6.4%	0.0	nt	0.5	2.7
COC(=O)c1ccc(C2C(Oc3ccc(OC)cc3)C(=O)N2CCc2ccc(F)cc2)cc1 (stereo unspecified)
 : -2.8	-0.3	-6.5%	-0.5	0.696	5.0	1.0
CCOC(=O)C(NC(=O)CC(C)C)(Nc1sc(C)c(CC)c1C#N)C(F)(F)F (stereo unspecified)
 : 0.9	3.5	nt	0.5	0.684	-3.6	0.4
O=C(COC(=O)c1ccc(F)cc1)NCCCc1ccccc1
 : -0.5	-3.1	-4.9%	0.9	0.634	10.9	2.7
C=CCOC(=O)C1=C(C)NC(=O)NC1c1ccc(N(C)C)cc1 (stereo unspecified)
 : 0.1	-7.9	-1.9%	0.8	0.662	-0.3	-0.8
COc1ccc(/C=C/C(=O)OCC(=O)NC2CCS(=O)(=O)C2)cc1 (stereo unspecified)
 : 3.5	nt	-3.1%	nt	0.677	1.3	-3.9
O=C(C(c1ccccc1)N1CCOCC1)N1CCOCC1 (stereo unspecified)
 : 5.1	-6.3	10.1%	0.0	0.765	2.1	1.1
Cc1ccc(Nc2cccc(C(F)(F)F)c2)nn1
 : 1.2	8.0	nt	0.1	0.66	-7.5	-1.4
CC1(C)Oc2ccc(C(=O)NC3CCCC3)cc2N(CC(=O)NC2CCCCC2)C1=O
 : 2.2	1.6	2.9%	nt	0.621	10.2	-4.5
O=C(Oc1ccccc1Cl)c1ccc(N2CCOCC2)c([N+](=O)[O-])c1
 : 7.7	nt	13.7%	0.0	0.655	2.9	2.1
Cc1ccc(C(=O)NCC(=O)NCc2ccccc2F)s1
 : 1.5	1.3	nt	0.7	0.646	-9.4	-2.3
COCCOC(=O)c1c(NC(=O)CN2CCc3ccccc32)sc(C(N)=O)c1C
 : 2.8	4.0	11.7%	-0.3	0.685	6.8	-3.8
O=C1C(Cl)=C(N2CCCCCC2)C(=O)N1c1ccc(Cl)cc1
 : 2.1	2.5	-5.7%	-0.1	0.682	20.7	11.2
COc1cc(/C=N/NC(N)=O)ccc1OCC(=O)Nc1ccc(C)c(C)c1
 : nt	-2.4	16.1%	1.0	nt	-1.2	-1.6
CCOc1ccc(N/C(=N/c2nc(C)cc(C)n2)NC(=O)CC)cc1
 : nt	-5.1	-6.0%	0.4	nt	-11.0	1.5
Cc1ccccc1C(=O)N1CCC(C(=O)NN2C(=O)NC3(CCCCC3)C2=O)CC1
 : -0.2	-1.0	nt	1.0	0.632	5.8	2.6
O=C(Nc1ccc2c(c1)C(=O)NC2=O)c1ccc(S(=O)(=O)N2CCCC2)cc1
 : -59.7	1.2	-14.6%	0.9	0.727	3.9	4.4
COc1ccc(CCCc2nnc(SCc3nc4ccccc4c(=O)[nH]3)n2C)c(C)c1
 : 1.6	-4.3	4.7%	0.7	0.682	1.8	1.4
COc1c(O)cnn(-c2ccccc2)c1=O
 : 4.0	-0.6	-0.9%	1.0	0.647	2.3	2.2
Cc1cccc2cc(CN(Cc3cccnc3)C(=O)c3ccccc3F)c(Cl)nc12
 : 1.9	2.0	19.8%	0.5	0.658	3.7	4.0
O=c1c(-c2ccc3c(c2)OCCO3)coc2cc(OC3OC(CO)C(O)C(O)C3O)ccc12 (stereo unspecified)
 : 1.3	5.0	-4.5%	-13.3	0.692	-2.0	-4.2
CC1=C(C)/C(=N\OC(=O)/C=C/c2ccccc2)C=CC1=O
 : nt	1.8	7.9%	-1.8	nt	2.0	0.8
Cc1c(NC(=O)CSCc2ccccc2)cccc1C(=O)O
 : 4.4	-2.4	2.0%	-0.3	0.69	-3.4	0.0
CC(C)(C)N(Cc1ccccc1)C(=O)COC(=O)c1ccccc1SCC(=O)N1CCCC1
 : 1.0	2.3	4.7%	0.2	0.682	5.3	0.0
CCCCCCCNC(=O)c1ccc(N2CCC3(CC2)OCCO3)c([N+](=O)[O-])c1
 : 2.8	1.0	nt	0.8	0.684	-12.6	4.2
CCOc1cc(CNC(C)C)c(Cl)cc1OCC(=O)NCCc1ccccc1
 : -0.9	3.7	-1.2%	-0.1	0.755	-4.5	-1.8
CC1CC(C)CN(C(=O)CNC(=O)c2ccc3ccccc3c2)C1 (stereo unspecified)
 : 4.2	1.2	-0.1%	0.7	0.693	-5.6	0.7
O=C(CN1CCCCC1)NNC(=O)c1ccc([N+](=O)[O-])cc1
 : -0.1	1.2	nt	0.4	0.718	-4.2	-1.9
Cc1ccc(C)c(NC(=O)Cn2nnc(-c3ccc(N4CCOCC4)cc3)n2)c1
 : 1.3	-0.7	-1.4%	-1.3	0.729	0.9	-1.1
CC(C)C(=O)N1CCN(c2ccc(NC(=O)c3ccc(Br)o3)cc2)CC1
 : 2.6	-3.5	-1.9%	1.7	0.674	6.2	-0.5
CCN(CC)CCOC(=O)c1ccc(NC(=O)COc2cc(=O)n(CC)c3ccccc23)cc1
 : -0.5	1.1	5.0%&3.1%	0.6	0.72	12.5	6.5
Cc1n[nH]c(C)c1CCNCc1ccc(OCC(O)CN2CCCCC2)cc1 (stereo unspecified)
 : 5.4	1.0	-2.0%	0.0	0.713	1.0	7.1
COc1ccc(Cl)cc1-n1c(C)cc(C=O)c1C
 : 3.0	-5.1	-1.4%	-0.1	0.722	-3.5	3.3
Cc1cccn2cc(-c3cc4ccccc4oc3=O)nc12
 : -15.3	1.3	5.6%	0.4	0.75	-6.6	-1.9
CC(=O)[C@@H]1[C@@H]2C(=O)N(c3ccc(F)c(Cl)c3)C(=O)[C@@H]2C2c3ccccc3C=CN21 (stereo partly specified)
 : nt	0.6	32.7%	-0.4	nt	nt	nt
COc1ccccc1N1C(=O)CC(N2CCN(c3ccc([N+](=O)[O-])cc3)CC2)C1=O (stereo unspecified)
 : 6.5	13.3	nt	-0.9	0.621	4.3	-0.8

Looked up above:
A1 inh with CCOc1cc(CNC(C)C)c(Cl)cc1OCC(=O)NCCc1ccccc1 reads -0.1
Vif A3G with O=C(Oc1ccccc1Cl)c1ccc(N2CCOCC2)c([N+](=O)[O-])c1 reads 13.7%

Further structures follow:
Second line of a record – UCH37 inh	LANA-H2A inh	Vif A3G	A1 inh	Ecoli growth	Beta2AR agonist	HNF4A DNA FP
CCCC(=O)Nc1nnc(S(=O)(=O)N2CCCC2)s1
 : 6.1	2.8	nt	0.4	0.776	0.7	3.4
CC(C)c1ccc(NC(=O)c2sccc2-n2cccc2)cc1
 : 2.0	-2.5	-2.6%	-1.7	0.694	10.3	0.3
CCOc1ccc(NC(=O)CCc2c(C)nn(-c3ccc(N4CCCCC4)nn3)c2C)cc1
 : 4.0	0.5	nt	1.3	0.667	-6.9	0.2
O=C(CSc1ccccn1)N1CCOCC1
 : 1.2	-2.4	-5.2%	-0.2	0.704	0.2	-3.1
O=C(c1ccc(CS(=O)(=O)c2c(Cl)cccc2Cl)o1)N1CCN(c2ccccn2)CC1
 : 4.7	3.6	6.1%	1.0	0.73	-11.6	4.2
Cc1cc(NC(=O)CN2CCN(Cc3ccccc3)CC2)nc2c1c(=O)oc1ccccc12
 : 4.6	-2.5	0.0%	0.2	0.723	nt	nt
Nc1ncnc(Oc2cccc(C(F)(F)F)c2)c1[N+](=O)[O-]
 : 7.2	-1.9	1.6%	-0.3	0.703	1.9	0.8
O=S(=O)(/C=C/c1ccccc1)Nc1cccc(S(=O)(=O)NC2=NCCC2)c1
 : 2.1	-2.4	14.0%	-2.2	nt	9.4	-3.5
COc1cc(CCC(=O)NCCc2ccc(F)cc2)cc(OC)c1OC
 : 4.6	1.7	nt	0.8	0.674	-3.6	-1.5
C=CCN(C(=O)c1ccccn1)C(C(=O)NCc1ccccc1)c1ccccc1F (stereo unspecified)
 : 0.3	0.0	6.8%	-0.3	0.721	0.0	-2.9

Source: PubChem (several laboratories)
